# VDR inh – blocks the human vitamin D receptor; hit rate 0.93% among 400,000; VDR-SRC2-3 peptide fluorescence polarization, 2 h; P11473; AID 504847; Potency, µM, for inactives: max response, negative = inhibition, usual class: inhibitors; active = well fitted inhibition curve with a large enough effect; inconclusive = small, poorly fitted or top-dose-only effect, or another doubt; inactive = no such curve, though single readings can be large or run the other way; note: series mostly up to about 120 µM
# Target sequence (P11473 whole entry, looked up): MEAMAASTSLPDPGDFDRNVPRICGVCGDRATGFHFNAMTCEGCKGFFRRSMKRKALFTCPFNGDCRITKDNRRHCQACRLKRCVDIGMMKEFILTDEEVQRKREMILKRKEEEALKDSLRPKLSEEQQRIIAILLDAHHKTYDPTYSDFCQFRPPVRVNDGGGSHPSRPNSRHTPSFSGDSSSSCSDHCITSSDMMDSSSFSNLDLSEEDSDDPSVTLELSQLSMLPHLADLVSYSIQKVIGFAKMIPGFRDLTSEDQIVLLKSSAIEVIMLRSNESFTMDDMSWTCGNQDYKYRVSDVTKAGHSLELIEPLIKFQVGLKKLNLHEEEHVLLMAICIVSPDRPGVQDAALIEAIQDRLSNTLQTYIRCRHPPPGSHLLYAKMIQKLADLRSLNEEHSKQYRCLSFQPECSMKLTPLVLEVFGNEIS
#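 Measured by FP: displacement of SRC2-3 coactivator peptide from VDR by library compounds, following a two-hour ambient incubation.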
# * = called active by the depositor; ? = inconclusive; & = joins results of further samples. % is set by controls: 0 for no effect and ±100 for the full control effect; potency is the fitted concentration of half-maximal effect. Only part of the results is shown, so the mix of outcomes need not match the whole.
mol	VDR inh
O=C(c1ccccc1F)N1CCC(c2nc3c(nnn3Cc3cccc(F)c3)c(=O)[nH]2)CC1	2.9%
CCOCCc1nnc(NC(=O)c2ccc(OC)c(OC)c2)s1	-3.3%
Cc1ccc(CNC(=O)CN(C)S(=O)(=O)c2cccc3cccnc23)cc1	-13.7%
COc1ccc(CCNC(=O)c2ccccc2NS(=O)(=O)c2c(F)cccc2F)cc1	17.0%
CN(CC(=O)Nc1ccccc1F)CC(=O)Nc1ccc(F)c(F)c1F	-6.0%
COc1ccc(-c2ccc(CCC(=O)O)n2CC(C)C)cc1	1.4%
O=[N+]([O-])c1ccc(-n2nncc2-c2ccc(Cl)cc2)cc1	3.6%
Cc1ccc(Nc2oc(C)nc2C#N)cc1	13.5%
O=C(CCS(=O)(=O)c1ccccc1)Nc1cccc2c1C(=O)NC2=O	-3.6%
O=C(COC(=O)Cc1ccc(-c2ccccc2)cc1)NCc1ccccc1	?
FC(F)(F)c1ccccc1-n1c(-c2ccco2)n[nH]c1=S	-18.6%
COc1ccc(/C=C2\SC(=S)N(CC(=O)NC3C=CS(=O)(=O)C3)C2=O)cc1 (stereo not drawn)	-9.0%
O=c1[nH]c2ccccc2n2c(C(F)(F)F)nnc12	-3.2%
COc1cccc(OCCc2c(C)n[nH]c2C)c1	-2.6%
CC(=O)N1CCN(c2ccc(NC(=O)c3ccc([N+](=O)[O-])cc3Cl)cc2)CC1	-1.5%
C=CCSc1nnc(-c2cc3c(s2)-c2ccccc2CC3)o1	7.7%
Cc1cc(C)c(-c2c(O)c3ccccc3n(C)c2=O)c(C)c1	-1.3%
CN(c1ccccc1)c1cc(=O)[nH]c(=O)[nH]1	2.1%
Cc1ccc(NC(=O)CSc2nncn2-c2ccccn2)cc1Cl	-61.9%
COc1ccc(C(=O)NNc2ncnc3c2cnn3-c2ccc(C)cc2C)cc1	9.6%

mol	VDR inh
CCc1ccc2oc(-c3ccc(NC(=O)c4cc(OC)c(OC)c(OC)c4)cc3)nc2c1	-0.4%
COc1ccccc1CNC(=O)c1ccccc1N(C)S(C)(=O)=O	17.9%
CCOC(=O)CC1C(=O)NCCN1Cc1ccc(OC)c(OC)c1 (stereo not drawn)	-4.5%
CC(=O)c1ccc(NC(=O)CCCSc2nc(-c3ccco3)cc(C(F)(F)F)n2)cc1	6.4%
Cc1ccc2oc(C(=O)N3CCC(C(N)=O)(N4CCCCC4)CC3)c(C)c2c1	11.2%
Cc1cccc(OCC(=O)Nc2ccccc2OCc2cc(=O)n3ccccc3n2)c1	16.0%
CN(C)CCN(CC1CCCN(Cc2ccccc2F)C1)C(=O)c1ccc(Cl)cc1 (stereo not drawn)	21.8%
Fc1ccc(N2CCN(C(=S)NCC3CCCO3)CC2)cc1 (stereo not drawn)	-14.7%
Cc1ccc(CNS(=O)(=O)c2c(C)[nH]c(C)c2C(=O)N2CCCC2)cc1	-1.3%
Cc1ccc(/C=C2\C(=O)NC(=O)N2C)o1	?
CN(c1ccccc1)S(=O)(=O)c1ccc(NC(=O)c2ccc(-c3ccccc3)cc2)cc1	1.8%
Cc1ccc(S(=O)(=O)Cc2ccc(C(=O)N3CCCCC3C)cc2)cc1 (stereo not drawn)	8.5%
Cc1cc2c(cc1C)NC(c1cccnc1)C1=C(CC(C)(C)CC1=O)N2 (stereo not drawn)	-9.3%
N#Cc1ccc(OCC(O)CN2CCN(CC(O)COc3ccc(C#N)cc3)CC2)cc1 (stereo not drawn)	-7.6%
CCOC(=O)CNC(=O)/C=C/c1ccc2c(c1)OCO2	4.2%
CSc1ncccc1C(=O)OCc1cccc([N+](=O)[O-])c1	-8.5%
Cc1c(CC(=O)O)c(=O)oc2cc3c(cc12)CCC(C)(C)O3	-1.3%
CC(=O)c1cccc(NC(=O)C(NC(C)C)c2ccccc2)c1 (stereo not drawn)	-13.3%
CC1=NN(C(=O)Cc2ccccc2)C(O)(c2cccnc2)C1 (stereo not drawn)	0.6%
Cc1ccccc1C(=O)O/N=C(\N)c1cccc([N+](=O)[O-])c1	-6.1%

mol	VDR inh
CCCSc1nnc(NC(=O)CSc2nc3[nH]c(=O)cc(O)c3s2)s1	19.7%
Cc1cc(=O)n2[nH]nnc2n1	1.6%
O=C1CCC/C=C\C[C@H](CC(=O)N(CCO)Cc2ccccc2)C(=O)N2CCC[C@@H]2CO1	-22.7%
COc1ccc(C(=O)O/N=C(/c2ccccc2)c2ccncc2)cc1OC	-10.5%
COc1cccc(/C=C(\C(=O)O)c2ccccc2)c1	-2.0%
Cc1ccc(S(=O)(=O)N(Cc2ccc(F)cc2)Cc2ccco2)cc1	-8.5%
CN(C)CC(C)(C)CNS(=O)(=O)c1ccc(OC(F)(F)F)cc1	0.4%
COc1ccc(C2=C(N3CCN(c4cc(C)ccc4C)CC3)c3ccccc3C2=O)cc1	3.1%
CCOc1ccc(N2C(=O)CC(N3CCN(c4ccc(C(=O)c5ccncc5)cc4)CC3)C2=O)cc1 (stereo not drawn)	-8.7%
O=C(CSc1nc(NS(=O)(=O)c2ccccc2)cc(=O)[nH]1)Nc1ccccc1C(F)(F)F	-10.0%
COc1ccc(NC(=O)c2cccc3c(=O)c4c([nH]c23)CCCC4)cc1	24.2%
O=C(CCCn1nnc(-c2cccnc2)n1)c1ccc(F)cc1	-4.3%
O=C(c1cccc(Cl)c1)N1CCCC(c2ccc(Cl)cc2)=N1	2.6%
CCOc1ccc(CNC(=O)c2cc(-c3ccc(Cl)s3)nc3ccccc23)cc1	1.5%
NCC(=O)NCC(=O)NC[C@H]1O[C@@H](n2ccc(=O)[nH]c2=O)[C@H](O)[C@@H]1O	7.7%
Cc1ccccc1Nc1nc2ccccc2s1	-11.1%
CCOc1ccc(N(CC)S(=O)(=O)N2CCCC(C(=O)Nc3ccc(OC)c(Cl)c3)C2)cc1 (stereo not drawn)	19.6%
CCc1cc2c(cc3c(=O)n(CC(=O)N4CCN(C)CC4)ncn32)s1	?
Cc1ccc(NC(=S)NC(=O)C2CC2)c(C)c1	-12.6%
N#Cc1ccc(Oc2ccc(C#N)c(C#N)c2)cc1C#N	3.7%

# Exported with each value named: two of the compounds above
Structure: CN(C)CC(C)(C)CNS(=O)(=O)c1ccc(OC(F)(F)F)cc1
  VDR inh: 0.4%
Structure: COc1ccc(C2=C(N3CCN(c4cc(C)ccc4C)CC3)c3ccccc3C2=O)cc1
  VDR inh: 3.1%

# (listing goes on)
Structure	VDR inh
O=C(COc1ccc(Cl)cc1)Nc1ccc2c(c1)CCC2	-17.3%
O=C(CN1C(=O)c2ccc([N+](=O)[O-])cc2C1=O)NC1CCCCCC1	1.8%
Cc1cc(C)n(CC(O)COc2ccccc2)n1 (stereo not drawn)	9.1%
CSc1sccc1/C=C(/C#N)C(=O)c1ccco1	?
O=C(COC(=O)CCC(=O)c1ccc(Cl)cc1)NC1CC1	-0.8%
CN(CCO)c1cc(N2CCCCC2)c2nonc2c1[N+](=O)[O-]	-8.6%
Cc1cc(/C=N/NC(=O)Cn2c3ccccc3c(=O)c3ccccc32)c(C)n1-c1ccc(Cl)cc1	1.0%
CCCc1cc(=O)oc2cc(C)cc(O)c12	11.0%

Structure	VDR inh
O=C(CNC(=O)c1ccc(Br)o1)NNC(=O)c1ccccc1F	-16.2%
COc1cccc(CNC2CCCC2)c1	1.7%
CCOC(=O)C1=C(COC(=O)c2cc(OC)c(OC)cc2[N+](=O)[O-])NC(=O)NC1C (stereo not drawn)	?
CC(=O)Nc1ccc(C(=O)CN2CCN(c3ccccc3)CC2)cc1	19.5%
Cc1cc2nc(CCN(C(=S)NCC(C)C)C3CCCC3)[nH]c2cc1C	14.0%
O=C(Cn1ccc([N+](=O)[O-])n1)N1CCCCC1	1.4%
CC(=O)NC1(C(F)(F)F)NC(=O)N(C2CCCCC2)C1=O (stereo not drawn)	-5.7%
Cc1ccc(S(=O)(=O)N(C)C)cc1NC(=O)C(C)OC(=O)C1CCCCC1 (stereo not drawn)	-16.7%

Structure	VDR inh
CC(NC(=O)CN1C(=O)c2ccccc2C1=O)c1ccccc1 (stereo not drawn)	14.3%
CC(=O)N1c2ccc(S(=O)(=O)NCc3ccc(Cl)cc3)cc2CC1C (stereo not drawn)	5.4%
Cn1c(/C(C#N)=C/c2ccc(-c3ccc(S(N)(=O)=O)cc3)o2)nc2ccccc21	6.1%
O=c1c(Cl)c(NCc2ccco2)cnn1C12CC3CC(CC(C3)C1)C2	3.6%
CCn1cc(C(=O)O)c(=O)c2cc(F)c(N3CCN(S(=O)(=O)c4ccc(NC(=O)OC)cc4)CC3)cc21	-29.2%
CCCn1c(=S)[nH]c2cc(C(=O)N3CCN(C(=O)OCC)CC3)ccc2c1=O	-9.7%
CCC1CCCCN1C(=O)c1ccc(OC)c(OC2CCN(C(C)=O)CC2)c1 (stereo not drawn)	-3.3%
CCOC(=O)c1cc(CN2CCOCC2)oc1-c1ccccc1	-19.1%

Structure	VDR inh
COc1ccc(NC(=O)CSc2nc3ccccc3nc2N2CCCC2)cc1Cl	-1.5%
CN(C)c1ccc(NC(=O)COC(=O)c2cc(=O)c3ccccc3o2)cc1	-16.3%
CCNC(=O)c1cnc2sc(N3CCC(C)CC3)nn2c1=O	9.1%
O=c1c(Cc2c(F)cccc2Cl)c(O)ccn1CC1CCCO1 (stereo not drawn)	-9.4%
O=C(CCc1nc2ccccc2[nH]c1=O)N/N=C/c1ccccc1	12.6%
O=C(O)c1ccc(N/N=C/C(Br)=C/c2ccccc2)cc1	-8.6%
COCc1cc(=O)n2[nH]c(-c3cccs3)cc2n1	6.2%
Cc1nc(N2CCOCC2)c2c(C(=O)N3CCN(c4ccc(Cl)cc4)CC3)c(C)oc2n1	0.2%

# Laid out differently: entries from further up
> CN(C)c1ccc(NC(=O)COC(=O)c2cc(=O)c3ccccc3o2)cc1
  VDR inh = -16.3%
> CCNC(=O)c1cnc2sc(N3CCC(C)CC3)nn2c1=O
  VDR inh = 9.1%
> O=c1c(Cc2c(F)cccc2Cl)c(O)ccn1CC1CCCO1 (stereo not drawn)
  VDR inh = -9.4%
> O=C(CCc1nc2ccccc2[nH]c1=O)N/N=C/c1ccccc1
  VDR inh = 12.6%

# Next compounds follow:
Structure	VDR inh
Cn1c(=O)n(CC(=O)Nc2cccnc2)c2ccccc21	0.6%
O=C(Cc1cccc(NC(=O)C2CCCN(C(=O)C3CCCCC3)C2)c1)Nc1cccc(C(=O)N2CCCCC2)c1 (stereo not drawn)	-9.8%
C#CCOCCOCCOCCNc1nc(N2CCN(C(=O)CCCCCCCCCCNC(=O)[C@H]([C@@H](C)CC)n3cc(CCCCCN)nn3)CC2)nc(N2CCN(C(=O)CCCCCCCCCCNC(=O)[C@H](CO)n3cc(CCCCCN)nn3)CC2)n1	10.7%
CCC(Sc1ncccc1C(=O)OC(C)C)C(=O)NCc1ccco1 (stereo not drawn)	?
NCCNS(=O)(=O)c1cccc2c(Cl)cccc12	-2.6%&6.3%&12.9%&-17.0%&6.8%
C=CCNC(=O)CC(=O)N/N=C/c1cccs1	-15.2%
O=C(NCCNCc1ccccc1)c1ccco1	-6.8%
CN(C)c1nc(N)ncc1-c1ccc(Oc2ccccc2)cc1	14.2%

Structure	VDR inh
Cc1ccc(NC(=O)CSc2nc3ccc(Br)cc3[nH]2)c(C)c1	12.7%
CCCc1cc(=O)[nH]c(SCc2nc(-c3ccccc3)no2)n1	4.9%
CC1CCCCC1NC(=O)COC(=O)C12CC3CC(CC(Cl)(C3)C1)C2 (stereo not drawn)	-8.5%
Cc1ccc(-c2nc(N)sc2CC(=O)OCC(=O)NC2CCCC(C)C2C)cc1 (stereo not drawn)	-8.9%
Cc1cn2c(=O)cc(COC(=O)c3ccccc3F)nc2s1	1.9%
O=C(C=Cc1ccccc1)c1cc(Br)ccc1O	?
S=C(NCCSCc1ccc(Cl)c(Cl)c1)Nc1ccccc1	-1.5%
CC1CCCCN1C(=O)CSc1nnc(-c2ccc(Cl)s2)o1 (stereo not drawn)	17.7%

Structure	VDR inh
COc1ccccc1CN(Cc1cc2cc(C)ccc2[nH]c1=O)Cc1nnnn1Cc1ccco1	1.9%
Cn1cnc(C(=O)N2CCN(c3ccccc3)CC2)c1C(=O)N1CCN(c2ccccc2)CC1	-14.7%
C=CCN(CC(=O)NCc1ccc(F)cc1)C(=O)c1csnn1	-7.8%
O=C(NC(=S)N1CCN(C/C=C/c2ccccc2)CC1)c1ccco1	-15.0%
O=C1CCC(=O)N1c1ccc(NCc2ccccc2Cl)c([N+](=O)[O-])c1	-2.2%
O=C(c1ccco1)N1CCN(C2CCCC2)CC1	-17.6%
Cc1ccc(S(=O)(=O)N(CC(=O)N2CCC(C)CC2)c2ccccc2)cc1	-3.4%
O=C(O)c1ccc(N=Nc2c(O)[nH]c3ccc(Br)cc23)cc1	-7.6%

Structure	VDR inh
Nc1nc(NCc2ccco2)nc(N2CCN(Cc3ccccc3)CC2)c1[N+](=O)[O-]	3.3%
CCOC(=O)c1sc(N2C(=O)C(O)=C(C(=O)c3ccco3)C2c2ccc(C)o2)nc1C (stereo not drawn)	?
CCn1c(SCC(=O)Nc2cccc(NC(=O)c3cccs3)c2)nnc1-c1ccncc1	4.8%
CCCCNC(=O)c1c[nH]c2ccc(S(=O)(=O)N3CCOCC3)cc2c1=O	-3.6%
O=C(NCC1CCCO1)c1ccc(NC(=O)c2cc(F)c(F)cc2Cl)cc1 (stereo not drawn)	5.9%
O=C(Nc1nc2c(Cl)ccc(Cl)c2s1)c1ccco1	3.4%
COc1ccc(-n2ccc3ccccc32)cc1	-2.6%
CC1CCCC(CC(=O)O)(CC(=O)O)C1 (stereo not drawn)	6.0%

Structure	VDR inh
O=C(c1ccccc1)c1ccc(O)c(O)c1O	7.5%
Cc1cccc(C)c1N1C(=O)c2ccccc2C1=O	-5.2%
O=C(COC(=O)c1ccccc1Br)NCC1CCCO1 (stereo not drawn)	2.5%
CCOc1ccc(NC(=O)CC2C(=O)N(c3cccc(OC)c3)C(=O)N2C2CCCCC2)cc1 (stereo not drawn)	3.5%
CC1CCN(C2=NC(=O)/C(=C/c3cn[nH]c3-c3ccccc3)S2)CC1	-6.6%
